LANA-nucl inh: inhibitors of KSHV LANA binding to nucleosomes. hit rate 0.3% among 51,000. z-score (concentration not given with the values). FITC-LANA1-23 / chicken nucleosome fluorescence polarization; stronger effect = lower value;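 active = both repeat wells score below -2 in polarization z-score versus plate sample wells, excluding overly bright wells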;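 also: 100 nL library stock added to about 30 µL; numbers are from one replicate; some results filed as inactive read as strong as hits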
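Assay system: purified chicken nucleosomes with FITC-labelled LANA N-terminal peptide (1-23) / Probe or stimulus: 50 nM FITC-LANA1-23 probe / Compound dosing: pin-transferred compound, 100 nL / Times: compound with peptide–nucleosome mix 10–45 min at room temperature / Technique: fluorescence polarization, 480 nm excitation, 535 nm parallel and perpendicular emission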
BasE inh: BasE siderophore biosynthesis inhibition; purified BasE, fluorescence polarization binding displacement; inhibition, % (no concentration beside the values); hit rate 0.1% among 84,000;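 active = both replicates above 25% with normal brightness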;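 also: 0% = negative plate control signal and 100% = positive plate control signal; stock transfer was 100 nL into about 30 µL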
An asterisk follows results filed as active; · = not tested or not shown; & = joins results of further samples.

structure | LANA-nucl inh | BasE inh
CNCc1cccnc1 | · | 0.6
CCCC12CNCC(C)(CNC1)C2=O | · | 0.4
O=C1CC(=O)N(Cc2ccccc2)C(=O)N1 | · | 3.3
CC(C)=CCCC1(C)C=Cc2c(O)c3c(c(CC=C(C)C)c2O1)OC12C(=CC4CC1C(C)(C)OC2(C/C=C(/C)C(=O)O)C4=O)C3=O (stereo not drawn) | 0.34 | 0.4
c1ccc2sc(C3CCCNC3)nc2c1 (stereo not drawn) | · | -2.9
C=CC1CN2CCC1CC2C(OC(=O)CCC(=O)O)c1ccnc2ccccc12 (stereo not drawn) | 0.42 | 1.4
Cc1ccc(C)c(C(C)CN)c1 (stereo not drawn) | · | -8.9
Clc1cc(Cl)cc(NC2=NCCS2)c1 | 0.19 | -0.5
CCN1CCN(c2ccc(N)cc2)CC1 | -2.9* | ·
CSc1nnc(CCN)n1C | -1.1 | -0.5
CCCN1CCC(NC(C)CCCC(C)(C)O)CC1 (stereo not drawn) | -0.81 | 0.4
COCCCn1c(OC(=O)N(C)C)c(C)c(C)nc1=S | 2 | 0.7
Cc1ccc(C(=O)CN2CCCC(C)C2)cc1 (stereo not drawn) | · | 0.8
COc1ccc2c(c1)c(C(=O)O)c(C)n2C1CCCCC1 | · | 2.4
ClCc1nc2ccccc2[nH]1 | 0.062 | ·
c1cncc(C2CCCCN2Cc2ccc3c(c2)OCO3)c1 (stereo not drawn) | 0.52 | -2.1
CNC(=O)Oc1c(Br)cc2sc(=O)oc2c1Br | 1.4 | -2.2
CC12CNCC(C)(CN(Cc3ccccc3)C1)C2 | -0.32 | -2.4
COc1ccc(CN2C(=O)CC(=O)NC2=S)cc1 | -0.58 | 6.4
CCOC(=O)C1CCN(/C=C2\C(=O)NC(=S)N(CC)C2=O)CC1 | 0.94 | 2.2
c1cncc(C2CCCCN2)c1 (stereo not drawn) | -1.1 | 0.4
CCC(C)n1c(C)cc(C(N)=O)c1C (stereo not drawn) | · | 2.3
NCCc1cc(O)c(O)cc1O | -0.29&-0.23 | 2.0
CC12CCC3C4CCC(=O)C=C4CCC3C1CCC2O (stereo not drawn) | -0.45 | 0.1
Cc1ccc(-c2cn3c(n2)sc2cc(C(=O)N4CCC5(CC4)OCCO5)ccc23)cc1 | -0.05 | -2.1
CCCCC[C@@H](/C=C/C=C\CCCCCCCC(=O)O)OO | 0.48 | 3.0
C[N+]1(C)C2CCC1CC(OC(=O)C(CO)c1ccccc1)C2 (stereo not drawn) | -0.49&-0.65 | 0.5
CC12CCC3C(CC=C4CC(O)CCC43CO)C1CCC2OC(=O)c1ccccc1 (stereo not drawn) | · | -4.9
C1=CCC2NC(C1)Cc1ccccc12 (stereo not drawn) | 1.2 | 2.8
CCc1cc2c(s1)NC(=O)CN=C2c1cccs1 | 0.65 | 0.2
O=C(CN1CC2CC(C1)c1cccc(=O)n1C2)c1ccc2cc[nH]c2c1 (stereo not drawn) | 0.056 | 2.9
CC(C)c1ccccc1N=C1SCCN1C | · | 1.4
CCN1C(=O)C(=C2C=C(C)N(Cc3ccco3)C(C)=C2)C(=O)N(CC)C1=S | · | 0.1
N#Cc1cccc(NC(=O)c2sc3nc4c(cc3c2N)C2CCN4CC2)c1 | -1.4 | 2.0
O=S(=O)(O)c1cc(O)ccc1O | -0.062 | -1.3
Cc1ccc(C)c(NC2=NCCS2)c1 | -0.56 | -0.3
CC(CC(C(N)=O)(c1ccccc1)c1ccccc1)N(C)C (stereo not drawn) | 0.14 | ·
CN(C)C=C1C(=O)N(C2CCCCC2)C(=O)N(C2CCCCC2)C1=O | 1.1 | -3.2
CCC(CO)NC1CC(C)N(C)CC1C (stereo not drawn) | -0.46 | 3.9
O=C1C2CCN(CC2)C12CC2c1ccc(C(F)(F)F)cc1 (stereo not drawn) | 0.052 | -2.1

The list goes on; the last 3 above are carried over.
structure | LANA-nucl inh | BasE inh
CN(C)C=C1C(=O)N(C2CCCCC2)C(=O)N(C2CCCCC2)C1=O | 1.1 | -3.2
CCC(CO)NC1CC(C)N(C)CC1C (stereo not drawn) | -0.46 | 3.9
O=C1C2CCN(CC2)C12CC2c1ccc(C(F)(F)F)cc1 (stereo not drawn) | 0.052 | -2.1
CC1(C)CC2CC(C)(CN2Cc2cccnc2)C1 (stereo not drawn) | -0.15 | 2.1
Cc1nn(Cc2ccccc2)c(C)c1C(=O)OCC(=O)Nc1ccccc1SCC#N | · | -2.8
COC(=O)CC1=C(C(=O)OC)C2(C(=O)N1)C(C#N)=C(N)Oc1ccccc12 (stereo not drawn) | -0.075 | -1.6
CC1=C(C(=O)OC(C)C)C2(C(=O)N(C)c3ccccc32)C(C#N)=C(N)O1 (stereo not drawn) | -0.32 | 2.5
CN1CCCSC1=Nc1ccccc1F | 0.65 | 0.9
COc1ccc(CC2C(=O)N(C)C(=O)N(C)C2=O)cc1 | -0.23 | -2.9
Cc1cc(C=C(C#N)C#N)c(C)n1CC(F)(F)F | · | 2.5
CN1CCCC1c1ccc(N)nc1 (stereo not drawn) | 0.85 | 0.6
Cc1ccccc1CN1CCCN(Cc2ccccc2)S1(=O)=O | · | -0.2
O=C1/C(=C\c2ccc(N3CCOCC3)cc2)N2CCC1CC2 | -0.49 | 2.5
CCN(CC)CCOC(=O)C(O)(c1ccccc1)c1ccccc1 | -0.12 | ·
C=CCN1C(=O)NC(=O)C(CCc2ccccn2)(CCc2ccccn2)C1=O | -0.21 | 0.6
Cn1c(O)c(/C=C2/C=Nc3ccccc32)c(=O)n(C)c1=O | -1.2 | 1.5
CCOP(=S)(OCC)C1(C#N)CC1 | · | 0.7
Cn1ccnc1P(=S)(c1nccn1C)N1CCOCC1 | · | 0.2
CCC(=O)O[C@H]1CCC2C3CCC4=CC(=O)CC[C@]4(C)C3CC[C@@]21C (stereo partly drawn) | 1.3&-0.76 | -1.3
CCN(CC)c1ccc(C=C(C#N)C#N)cc1 | -0.47 | -0.9
C[C@]12CC[C@H](O)C[C@@H]1CC[C@@H]1[C@@H]2CC[C@]2(C)C(=O)CC[C@@H]12 | 0.15 | -2.9
O=c1ccc2ccc3occc3c2o1 | -1.4 | 1.3
CN1C(=O)C(=Cc2cn(CC(=O)N3CCCC3)c3ccccc23)C(=O)N(C)C1=O | · | 2.2
O=c1[nH]c(=S)[nH]c(O)c1N=Nc1ccc(S(=O)(=O)N2CCc3ccccc32)cc1 | 0.79 | -3.4
C=CCNC(=O)c1c(N)n(CCN2CCOCC2)c2nc3ccccc3nc12 | · | 14
CCOC(=O)C(O)(c1csc(N)n1)c1c(C)nn(-c2ccc(C)cc2)c1N (stereo not drawn) | · | 4.0
CCN1CCN(c2ccccc2N)CC1 | 0.43 | -5.0
CC[C@@]1(O)C(=O)OCc2c1cc1n(c2=O)Cc2cc3ccccc3nc2-1 | 0.017&-0.86&0.55 | -3.3&-2.5
Cn1c(CCN)nc2ccccc21 | · | 0.3
OC(CNC1CCCC1)c1ccccc1 (stereo not drawn) | · | 2.1
Cc1ccc(CN(C(=O)Nc2ccc(C)c(F)c2)C2CCN(Cc3ccccc3)CC2)o1 | 0.78 | 1.0
C[C@]12CC[C@H](O)CC1=CC[C@@H]1[C@@H]2CC[C@]2(C)C(=O)CC[C@@H]12 | 0.22&-0.32 | ·
Cc1oc(-c2ccc(Cl)cc2)nc1CS(=O)CC(=O)N1CCC2(CC1)OCCO2 (stereo not drawn) | 0.18 | -0.6
O=P1(NCCCl)OCCCN1CCCl (stereo not drawn) | 0.2&0.26&-0.36 | -0.2
CCC(=O)O[C@H]1CC[C@H]2[C@@H]3CCC4=CC(=O)CC[C@]4(C)[C@H]3CC[C@]12C | 1.1 | -1.3
CC1CCC[C@H](O)CCCCCc2cc(O)cc(O)c2C(=O)O1 (stereo partly drawn) | 0.2 | ·
Cc1cccc(OP(N)(N)=O)c1C | · | 1.7
O=c1cc(O)c2ccccc2o1 | 0.39 | 1.9
CCC(C)N=Cc1c(O)n(-c2ccccc2)c(=O)[nH]c1=O (stereo not drawn) | 0.31 | 5.6
O=c1[nH]c2ccccc2n1C1CCN(CCCC(c2ccc(F)cc2)c2ccc(F)cc2)CC1 | 0.002&0.23&0.24&-0.28&0.31 | -2.8&-1.4&-1.1
O=c1c2ccccc2[nH]c(=S)n1-c1ccc(Cl)c(Cl)c1 | · | 1.9
CN(C(=O)c1ccco1)C1(c2ccccc2Cl)CCCCC1=O (stereo not drawn) | · | -0.3
CCN1C[C@]2(COC)[C@H](O)C[C@H](OC)[C@@]34[C@@H]5C[C@@]6(O)[C@H](OC(=O)c7ccccc7)[C@@H]5[C@@](OC(C)=O)(C([C@H](OC)[C@H]23)[C@@H]14)[C@@H](O)[C@@H]6OC | -0.27 | -2.6

Brought forward from above: 7 entries, followed by the next part.
structure | LANA-nucl inh | BasE inh
Cc1cccc(OP(N)(N)=O)c1C | · | 1.7
O=c1cc(O)c2ccccc2o1 | 0.39 | 1.9
CCC(C)N=Cc1c(O)n(-c2ccccc2)c(=O)[nH]c1=O (stereo not drawn) | 0.31 | 5.6
O=c1[nH]c2ccccc2n1C1CCN(CCCC(c2ccc(F)cc2)c2ccc(F)cc2)CC1 | 0.002&0.23&0.24&-0.28&0.31 | -2.8&-1.4&-1.1
O=c1c2ccccc2[nH]c(=S)n1-c1ccc(Cl)c(Cl)c1 | · | 1.9
CN(C(=O)c1ccco1)C1(c2ccccc2Cl)CCCCC1=O (stereo not drawn) | · | -0.3
CCN1C[C@]2(COC)[C@H](O)C[C@H](OC)[C@@]34[C@@H]5C[C@@]6(O)[C@H](OC(=O)c7ccccc7)[C@@H]5[C@@](OC(C)=O)(C([C@H](OC)[C@H]23)[C@@H]14)[C@@H](O)[C@@H]6OC | -0.27 | -2.6
COc1ccc(CC(N)=O)cc1OC | 0.17 | 1.8
COC(=O)C1=C(C)NC(=O)C12C(C#N)=C(N)Oc1ccccc12 (stereo not drawn) | 0.049 | -0.2
COc1ccc2c(c1)c(C(=O)n1ccnc1)c(C)n2C1CCCCC1 | · | 1.2
CN1C(=O)C(Cc2nc3ccccc3c(=O)n2-c2ccccc2)c2ccccc21 (stereo not drawn) | 0.27 | -1.5
NC(N)=NCc1cccnc1 | 0.79 | -0.9
COc1ccc2c(c1)[nH]c1c(C)nccc12 | -0.21&0.58&-0.2 | -3.3&-2.9
CC12CC[C@H]3[C@@H](CCC4(O)C[C@H](O)CCC34/C=N/Nc3ccccc3)C1(O)CCC2C1=CC(=O)OC1 (stereo partly drawn) | 0.2 | 0.0
CCc1ccc(CN2CCN(Cc3cccc(OC)c3)CC2)cc1 | · | -1.8
C1CCC(NCC2OCCCCO2)CC1 | 0.46 | 2.0
c1ccc(C2CC2)c(OCC2=NCCN2)c1 | -0.23&0.14 | -2.0
Oc1c(Cl)cc(Cl)cc1CN1CCN(c2cccc(Cl)c2)CC1 | 0.35 | 2.8
CC(Cc1ccccc1)NCc1ccco1 (stereo not drawn) | 0.34 | 1.3
C1CCCN(C2CCNCC2)CC1 | -0.24 | 1.8
N#CC(C#N)=Cc1sccc1C1OCCO1 | -0.25 | 1.4
CCC1(CCc2ccncc2)C(=O)NC(=O)NC1=O | 0.7 | -1.2
Fc1ccccc1CN1CCN(c2cccc3[nH]ccc23)CC1 | -1.1 | ·
CC(=O)Nc1ccc(Cc2ccc(NC(C)=O)cc2)cc1 | · | 2.5
C/C=C(\C)C(=O)O[C@H]1C[C@@H](OC(C)=O)[C@@]2(C(=O)OC)CO[C@@H]3C2[C@]12CO[C@](O)(C(=O)OC)[C@H]2[C@](C)(C12O[C@@]1(C)[C@H]1C[C@@H]2OC2OC=C[C@@]21O)[C@@H]3O (stereo partly drawn) | -0.44 | -0.8
CCn1cc(C=C(C#N)C#N)c2ccccc21 | -0.86 | 4.1
CSc1nc2ccccc2c(=O)n1-c1cccnc1 | · | -2.1
CCN1C[C@]2(COC)CC[C@H](OC)[C@]34C5C[C@@H]6[C@@H](OC)CC7(OCO[C@]7([C@H]13)[C@@H](O)C24)C5[C@H]6OC (stereo partly drawn) | 0.32 | 1.6
COc1ccc(CCNCc2sccc2C)cc1 | -0.49 | 0.7
Cc1nc(N2CCN(C)CC2)c(C#N)c(C)c1Br | -0.11 | ·
Cn1nnnc1SC1CCOC1=O (stereo not drawn) | 1.8 | -2.3
CC1CC(=O)C2CCCCC2N1 (stereo not drawn) | -0.98 | -1.5
CNCCCc1ccccc1 | -0.12 | -0.3
N#Cc1ccc(Cn2cc(C(=O)c3ccccc3)c3ccccc32)cc1 | -0.67 | 2.7
COc1ccc(-n2c(C)nc3ccccc3c2=O)cc1 | · | 0.4
CC(=O)OC1CCC2C3CC[C@H]4C[C@@H]5C[C@@H]5[C@H](O)C4(C)C3CCC12C (stereo partly drawn) | · | 1.7
O=C(NC1CC2CCC(C1)N2)c1ccccc1 (stereo not drawn) | -0.38 | 0.9
CN(C)C1=C(C#N)C(c2ccccc2)=NP(N(C)C)(N(C)C)=N1 | · | -0.9
CCCC(C)C1(CC)C(=O)NC(=O)NC1=O (stereo not drawn) | -0.61 | ·
CC[C@@H](CO)NC(=O)[C@@H]1C=C2c3cccc4c3c(cn4C)C[C@H]2N(C)C1 | 0.19&0.25 | ·
C[C@]12CC[C@@H](O)C[C@@H]1CC[C@@H]1[C@@H]2CC[C@]2(C)C(=O)CC[C@@H]12 | 0.24 | 3.1
Cc1ccc(N2Cc3ccccc3C2=N)cc1 | · | -1.7
CC1(C)CC(n2cccc2)CC(C)(C)N1 | · | 2.6
CC(=O)OCOCC(=O)OCO[P+](=O)C(OCOC(C)=O)c1cc([N+](=O)[O-])ccc1Oc1ccc(Br)cc1 (stereo not drawn) | 0.41 | 0.9
Cc1cccc(C)c1OC(=O)Cc1ccccc1 | · | 0.5
CCN1CCN(CC(c2ccccc2)c2ccccc2)CC1 | 0.097 | -2.9

Assay outcomes from PubChem BioAssay.

Not all compounds are listed. The share of hits here may be higher or lower than overall.
